# High-throughput results deposited in PubChem BioAssay by several laboratories.
# PrP UTR inh: suppresses PrP 5' UTR mRNA reporter expression; cell-based PrP 5' UTR mRNA reporter, plate reader; inhibition, % (test concentration not listed); 340,000 tested, 0.35% active; AID 488862;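 active = every replicate at 50% or more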;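 also: 0 = median of the neutral control wells; tested in H4 reporter cells; numbers are from one replicate; inactives centre near -14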
# Mtb hypoxia inh: inhibitors of hypoxia-regulated fluorescent reporter in Mycobacterium tuberculosis. AID 1159583. M. tuberculosis hypoxia-regulated fluorescent reporter, fluorescence. fluorescence inhibition, % (no concentration beside the values). 300,000 tested, 0.1% active;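 active = 35 to 45% if threefold the growth effect, above 45% if 1.5-fold the growth effect; inactive = the rest, general growth blockers included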;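 also: wells of about 50 µL received 100 nL stock; 0% = vehicle wells and 100% = reference inhibitor wells; whole bacteria with a GFP reporter of the hypoxia response; strong numbers were not always called active; many hits fall short of the cut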
# Sa ugtP lethal: growth inhibition of S. aureus ugtP deletion strain; S. aureus RN4220 ugtP deletion, OD600 growth, 16 h; some inactives read as strong as hits; growth inhibition, % (concentration not given with the values); 330,000 tested, 0.54% active; AID 1259309;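 active = z-score under -3 and OD600 up to 0.15 on both plates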;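 also: plate controls were untreated wells for no effect and antibiotic for full effect; wells of about 80 µL received 100 nL stock; the first replicate is given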
# BJeLR lethal: BJeLR cell viability loss; BJeLR (HRASV12) viability, CellTiter-Glo ATP luminescence, 48 h; reference of the scale not given here; inhibition, % (no concentration beside the values); 300,000 tested, 0.17% active; AID 1554;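 active = replicate mean above 50%; inconclusive = above 50% but judged a plate artefact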;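 also: 50 nL library stock added to about 25 µL; numbers are from one replicate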
# Sa RN4220 lethal: kills Staphylococcus aureus RN4220 | S. aureus RN4220 growth, OD600, 16 h | inhibition, % (test concentration not listed) | 330,000 tested, 0.33% active | AID 1259311;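 active = z-score of -3 or lower and OD600 up to 0.18 on both plates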;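 also: plate controls were untreated cells for no effect and reference antibiotic for full effect; stock transfer was 100 nL into about 80 µL; one replicate is shown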
# Bead autofluor: flagged as autofluorescent in microsphere protease counterscreen; compound autofluorescence counterscreen, microsphere flow cytometry; active compounds read high; 360,000 tested, 3.1% active; fluorescence intensity (test concentration not listed);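 active = at least 3 SD above the mean of all compounds, about 16000 in these data; inconclusive = too few beads counted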;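 also: 100 nL of 1 mM stock went into each well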
# Mtb hypoxia inh growth: also measured in Mtb hypoxia inh; calls as there; growth inhibition, %; measured here: M. tuberculosis growth (absorbance);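 0% = vehicle and 100% = reference antibiotic; read after six days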
# * marks the source's active call; other numbers are inactive results; u = inconclusive; x = not tested or not shown.
(1) Cc1cc(-c2ccccc2)cc(-c2ccccc2)[n+]1CCc1ccccc1
(2) CC1(C)CC(OC(=O)c2ccco2)CC(C)(C)N1O
(3) Cc1ccc(C(=O)N(CCN2CCCCC2)CC2CCCN(C3CCCC3)C2)s1 (stereo unspecified)
(4) CC(=O)CCC1C2C(O)C(C(C)C)C(OC(=O)/C=C/c3ccccc3)CC12C (stereo unspecified)
(5) COCCNC(=O)c1ccc(N2CC3CC(C2)c2cccc(=O)n2C3)c(NC(=O)c2ccc(Br)o2)c1 (stereo unspecified)
(6) C[C@H](NC(=O)c1nc[nH]c1C(=O)NCC(=O)OCc1ccccc1)C(=O)OCc1ccccc1
(7) CCOC(=O)N/N=C/c1c(F)c(F)c(F)c(F)c1F
(8) O=C(c1ccccc1)N1CCN(CC#CC2(O)CCCCC2)CC1

Assay by compound	1	2	3	4	5	6	7	8
PrP UTR inh	-16	-9	-18	-44	-6	-3	-4	-15
Mtb hypoxia inh	20	x	-8	x	8	x	x	-4
Mtb hypoxia inh growth	33	x	-1	x	-2	x	x	-2
Sa ugtP lethal	-7	12	-1	-1	3	x	x	4
BJeLR lethal	18	6	-9	0	6	9	-13	0
Sa RN4220 lethal	5.7	3.7	1.6	6.4	1.2	x	x	2.3
Bead autofluor	4022	2767	7364	4967	6276	4001	2470	4733

(9) S=c1[nH]c(-c2ccccc2)cn1/N=C/c1cccc2ccccc12
(10) Nc1ncnc2c1ncn2[C@@H]1O[C@H](CNS(=O)(=O)c2ccc(-c3ccno3)s2)[C@@H](O)[C@H]1O
(11) Cc1ccc(C(=O)N2CCN(C(=O)c3ccccc3)C2c2ccc(N(C)C)cc2)cc1 (stereo unspecified)
(12) CCN(CC)CCNc1cc(C)nc2c1C(=O)C(=O)C=C2N1CCCCC1
(13) O=C(c1cccs1)N1CCN(c2cc(Cl)ccc2Cl)CC1
(14) COc1ccccc1N1CCN(CC(=O)c2c(C)[nH]c3ccccc23)CC1
(15) CCC(C(=O)Nc1ccsc1C(=O)OC)c1ccccc1 (stereo unspecified)
(16) C=CCSc1nc2sc3c(c2c(=O)[nH]1)CC(C)(CC)OC3 (stereo unspecified)

Assay by compound	9	10	11	12	13	14	15	16
PrP UTR inh	-14	-29	-11	0	-4	-14	7	1
Mtb hypoxia inh	x	4	7	8	1	3	6	-2
Mtb hypoxia inh growth	x	2	11	4	-2	7	-2	8
Sa ugtP lethal	x	6	-1	9	19	-14	6	3
BJeLR lethal	-5	x	-9	38	-8	-2	6	-17
Sa RN4220 lethal	x	1.3	6.4	4.0	-0.7	23	2.1	2.4
Bead autofluor	4092	3583	2110	4904	3283	10785	5462	3771

(17) COc1cc(CN2CCN(Cc3c[nH]c4ccccc34)CC2CCO)cc(OC)c1 (stereo unspecified)
(18) O=S(=O)(NCCN1CCOCC1)c1ccc(Cl)c(Cl)c1
(19) Cc1cc(OC(C)C(=O)N2CCN(c3ccc(F)cc3)CC2)c2c(C)cc(=O)oc2c1 (stereo unspecified)
(20) CC1CCN(S(=O)(=O)c2ccc3c(c2)N(C)C(=O)CC(=O)N3C)CC1
(21) CC1CCCCN1C(=O)Cn1c(=O)oc2cc(S(=O)(=O)N3CCCCC3)ccc21 (stereo unspecified)
(22) C#CCOCCOCCOCCNc1nc(N2CCN(C(=O)[C@H]([C@@H](C)O)n3cc(CCCCN)nn3)CC2)nc(N2CCN(C(=O)[C@H]([C@@H](C)CC)n3cc(CCCN=C(N)N)nn3)CC2)n1
(23) CC1(C)C(=O)OC(c2cccs2)C(C)(C)C1=O (stereo unspecified)
(24) CCn1c2ccccc2c2cc(NC(=O)CSc3nnc(-c4ccc(OC)c(OC)c4)n3N)ccc21

Assay by compound	17	18	19	20	21	22	23	24
PrP UTR inh	1	-22	-3	-14	-6	-8	-26	-8
Mtb hypoxia inh	13	9	2	x	-2	x	13	9
Mtb hypoxia inh growth	4	-3	-1	x	3	x	2	3
Sa ugtP lethal	6	-5	5	-16	-4	x	-6	4
BJeLR lethal	7	-5	-1	-9	2	-9	-6	-5
Sa RN4220 lethal	4.5	1.1	2.1	1.8	-5.1	x	2.9	9.4
Bead autofluor	4457	2998	4389	6016	4553	4097	19729*	u

(25) CCn1c(=N)c(C(=O)NC)cc2c(=O)n3cccc(C)c3nc21
(26) CC1CN(S(=O)(=O)c2cccc(C(=O)N(Cc3nnc(-c4ccccc4Cl)o3)C3CC3)c2)CC(C)O1 (stereo unspecified)
(27) CC(Cc1ccccc1)C(=O)NCc1nc2ccccc2s1 (stereo unspecified)
(28) COc1ccc(-c2csc(-n3ncc(-c4ccccn4)c3N)n2)cc1
(29) Cc1ccnc(SCc2cc(=O)c(OC(=O)c3ccc(S(=O)(=O)N4CCCC4)cc3)co2)n1
(30) O=S(=O)(c1ccc(SCc2ccc(Br)cc2)nc1)N1CCCCC1
(31) CCN1CCN(CCNC(=O)CS(=O)(=O)Cc2nc(-c3ccc(C)cc3)oc2C)CC1
(32) O=c1c([N+](=O)[O-])c(N2CCCCC2)c2ccccc2n1-c1ccccc1

Assay by compound	25	26	27	28	29	30	31	32
PrP UTR inh	3	-2	-10	-2	21	-1	2	-7
Mtb hypoxia inh	x	-9	7	0	-3	2	4	-2
Mtb hypoxia inh growth	x	8	13	-2	-1	-7	13	1
Sa ugtP lethal	0	-3	9	-1	6	4	-6	-4
BJeLR lethal	x	-3	-5	8	5	x	-5	-11
Sa RN4220 lethal	0.6	-0.5	-4.7	-5.5	0.9	-3.0	-9.1	-11
Bead autofluor	2507	5415	3957	4133	11039	u	5279	2369

(33) COc1ccc(C2CC(c3c(O)cc(C)oc3=O)=NCCS2)c(OC)c1 (stereo unspecified)
(34) CCN(CC)C(=O)c1sc(NC(=O)c2ccc3c(c2)OCO3)c(C(N)=O)c1C
(35) Cc1ccccc1NC(=O)C(C)O/N=C/c1cccc([N+](=O)[O-])c1 (stereo unspecified)
(36) CN1C(=O)N(CC(=O)Nc2ccc(C(F)(F)F)cc2)C(=O)C12CCCCC2
(37) Fc1ccc(NC(=S)N2CCN(c3ncccn3)CC2)cc1
(38) COc1cc(/C=C(\C#N)c2nc3ccccc3[nH]2)ccc1O
(39) CN(C(=O)COC(=O)C1CCN(S(=O)(=O)c2ccc(Cl)cc2)CC1)C1CCS(=O)(=O)C1 (stereo unspecified)
(40) CCOC(=O)C1C(=O)NC(N2CCCCC2)=NC1C(C)C (stereo unspecified)

Assay by compound	33	34	35	36	37	38	39	40
PrP UTR inh	45	-16	-24	-19	-16	-67	-23	-17
Mtb hypoxia inh	x	2	x	-1	8	-14	7	0
Mtb hypoxia inh growth	x	-1	x	14	2	-11	9	12
Sa ugtP lethal	3	5	x	1	4	-8	3	-2
BJeLR lethal	x	-3	3	x	5	-6	x	5
Sa RN4220 lethal	-0.8	23	x	2.5	0.5	1.3	1.5	1.1
Bead autofluor	5695	4192	3547	5494	2523	3975	4274	4177

(41) Cc1ccccc1OCC(O)CNC1CCCC1 (stereo unspecified)
(42) Cc1cccc(C)c1NC(=O)COC(=O)C1CC(=O)N(Cc2ccccc2)C1 (stereo unspecified)
(43) COc1ccc(C=NOCC(=O)NC(c2ccccc2)c2ccccc2)cc1OC
(44) O=C(C1CCN(S(=O)(=O)c2cccs2)CC1)N1CCCCC1
(45) COC(=O)c1c(NC(=O)Cc2cccs2)sc(C(=O)NC2CCCCC2)c1C
(46) Cc1cccc(OCC(=O)Nc2ccncc2)c1
(47) CCC(=O)OC(Cc1ccccc1)(c1ccccc1)[C@H](C)CN(C)C (stereo partly specified)
(48) O=C(CSc1nc2ccccc2[nH]1)N1c2ccccc2Sc2ccccc21

Assay by compound	41	42	43	44	45	46	47	48
PrP UTR inh	-7	-3	x	-13	-7	-34	6	-18
Mtb hypoxia inh	9	-4	10	-15	15	13	x	-8
Mtb hypoxia inh growth	-5	9	-2	-11	0	10	x	9
Sa ugtP lethal	10	3	3	1	-7	0	8	-19
BJeLR lethal	-12	-6	x	-1	-5	-4	x	-13
Sa RN4220 lethal	-0.2	6.9	9.9	3.7	5.8	3.1	2.4	5.5
Bead autofluor	x	4817	x	x	11057	6305	7161	2573

(49) COc1cc([N+](=O)[O-])ccc1NC(=O)CCS(=O)(=O)c1ccc2c(c1)n(C)c(=O)c(=O)n2C
(50) O=C(/C=C/c1cccs1)N1CCOCC1
(51) Cn1nc(C(=O)N2CCN(S(=O)(=O)c3ccc(Cl)cc3)CC2)c2ccccc2c1=O
(52) COc1cccc(OC)c1C(=O)Nc1c(C(=O)N2CCN(c3ccccn3)CC2)oc2ccccc12
(53) O=C(COc1ccc(Br)cc1)N1CCN(c2ccc([N+](=O)[O-])c(N3CCCCC3)c2)CC1
(54) COC(=O)[C@]1(C)N[C@H](CN(C)C(=O)NC(C)C)[C@@H]2C(=O)N(Cc3ccccc3)C(=O)[C@@H]21
(55) COC(=O)CSc1nnc(-c2ccoc2C)n1-c1ccc(C)cc1
(56) CC(C)(C)c1cc(NC(=O)CSc2nncs2)n(-c2ccccc2)n1

Assay by compound	49	50	51	52	53	54	55	56
PrP UTR inh	7	-2	-10	-3	-19	-9	-12	-14
Mtb hypoxia inh	2	2	-2	-1	8	4	x	18
Mtb hypoxia inh growth	-2	0	-5	3	2	0	x	4
Sa ugtP lethal	1	7	4	-2	-12	3	6	1
BJeLR lethal	0	-1	x	-1	0	x	15	-5
Sa RN4220 lethal	1.2	0.9	0.4	16	-3.3	2.7	0.1	9.6
Bead autofluor	5390	2432	6459	6679	8039	3913	3430	2138

(57) COC(=O)c1n[nH]n(-c2ccc(F)c(Cl)c2)c1=O
(58) O=C1C=C(c2cc3ccccc3s2)CC(c2ccc(F)cc2)C1 (stereo unspecified)
(59) COC(=O)c1cn(NC(=O)C2COc3ccccc3O2)c(=O)c2ccccc12 (stereo unspecified)
(60) CCOC(=O)N1CCc2c(sc3c2c(=O)n(Cc2ccccc2)c(=O)n3CC(=O)NCCOC)C1
(61) CN(Cc1ccon1)Cc1cn(C)nc1-c1ccc(Oc2ccccc2)cc1
(62) CCC(CO)NS(=O)(=O)c1cc(-c2nn(C)c(=O)c3ccccc23)ccc1C (stereo unspecified)
(63) Cc1oc(-c2ccc(Cl)cc2)nc1CS(=O)CC(=O)NCCCN1CCN(Cc2ccccc2)CC1 (stereo unspecified)
(64) Nc1ccc(Cc2ccccn2)cc1

Assay by compound	57	58	59	60	61	62	63	64
PrP UTR inh	x	x	-11	-15	-17	-9	-9	-16
Mtb hypoxia inh	17	8	15	-7	12	9	-2	10
Mtb hypoxia inh growth	7	10	12	0	7	2	6	6
Sa ugtP lethal	4	-3	12	2	10	-1	-1	7
BJeLR lethal	1	x	4	-12	-10	-8	18	5
Sa RN4220 lethal	4.5	-1.9	3.5	8.0	11	5.0	-2.3	4.3
Bead autofluor	4022	x	3164	2162	3104	3986	6014	3227

# Just Bead autofluor and Sa RN4220 lethal, for some of the entries so far:
entry | Structure | Bead autofluor | Sa RN4220 lethal
62 | CCC(CO)NS(=O)(=O)c1cc(-c2nn(C)c(=O)c3ccccc23)ccc1C (stereo unspecified) | 3986 | 5.0
60 | CCOC(=O)N1CCc2c(sc3c2c(=O)n(Cc2ccccc2)c(=O)n3CC(=O)NCCOC)C1 | 2162 | 8.0
61 | CN(Cc1ccon1)Cc1cn(C)nc1-c1ccc(Oc2ccccc2)cc1 | 3104 | 11
63 | Cc1oc(-c2ccc(Cl)cc2)nc1CS(=O)CC(=O)NCCCN1CCN(Cc2ccccc2)CC1 (stereo unspecified) | 6014 | -2.3

# Next part.
(65) N#C[C@]1(S(=O)(=O)c2ccccc2)CC2ON=C(c3cccc(Br)c3)C2C1 (stereo partly specified)
(66) COc1ccc2nc(NC(=O)CN3C(=O)NC4(CCCCC4)C3=O)sc2c1
(67) O=C(c1ccco1)N1CCC(c2nc(-c3ccc(F)cc3)no2)CC1
(68) COc1cc(N)c(Cl)cc1C(=O)OC(C)C(=O)Nc1cccc(S(=O)(=O)N2CCOCC2)c1 (stereo unspecified)
(69) O=C1/C(=C/c2cccs2)CCC/C1=C\c1cccs1
(70) CCC(C)(C)NC(=O)C(c1cccc(OC)c1)N(C(=O)CNC(=O)c1cccs1)c1cccnc1 (stereo unspecified)

Assay by compound	65	66	67	68	69	70
PrP UTR inh	x	-4	-21	13	-92	-9
Mtb hypoxia inh	4	-8	1	-11	x	0
Mtb hypoxia inh growth	4	-8	2	-17	x	-6
Sa ugtP lethal	2	12	3	-1	x	-5
BJeLR lethal	x	11	-3	-9	-3	5
Sa RN4220 lethal	-0.3	4.1	1.5	3.0	x	7.0
Bead autofluor	x	3758	10533	4253	6041	3249
